High-throughput results (PubChem BioAssay)
AmpC nodet inh: AmpC beta-lactamase inhibition, detergent-free assay; AID 585; Potency, µM (titrated, usually from 28.7 µM), for the others: at the top dose activity change, negative = inhibition; 1.8% of 71,000 active; P00811; AmpC nitrocefin hydrolysis, absorbance 480 nm, no detergent; potencies from a single point are estimates; active = falling curve, for most hits resting on a single point; inconclusive = weak or doubtful change; inactive = flat or rising curve; further: % of control where 0% means no effect; about half of the hits show no inhibition at the top dose; a quarter of the inactives give rising signals
Target sequence (P00811 whole entry, looked up): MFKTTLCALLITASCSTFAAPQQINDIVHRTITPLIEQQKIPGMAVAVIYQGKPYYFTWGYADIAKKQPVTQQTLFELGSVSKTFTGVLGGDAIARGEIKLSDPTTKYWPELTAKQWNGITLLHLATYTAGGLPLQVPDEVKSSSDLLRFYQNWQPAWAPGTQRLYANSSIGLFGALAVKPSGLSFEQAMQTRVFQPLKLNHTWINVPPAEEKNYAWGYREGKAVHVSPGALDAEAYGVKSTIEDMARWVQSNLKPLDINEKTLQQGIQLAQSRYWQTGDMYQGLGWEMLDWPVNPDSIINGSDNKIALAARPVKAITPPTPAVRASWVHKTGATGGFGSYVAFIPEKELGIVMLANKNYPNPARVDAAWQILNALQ
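AmpC in 20 mM phosphate buffer pH 7.0 was preincubated 15 min at room temperature with compounds. Nitrocefin (800 uM stock) was then added and hydrolysis followed at 480 nm every 20 s for 4 min.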
An asterisk follows results filed as active; & = joins results of further samples; [ ] = another dose, or the depositor's remark. Potency means the concentration at half of the fitted maximal effect.

The opening 4 records, to show the layout:
SMILES	AmpC nodet inh
O=C(Nc1cnn(Cc2ccc(Cl)cc2Cl)c1)c1noc2c1CCCC2	4µM*[single pt active]
COC(=O)Cn1c(C(=O)N2CCCC2)cc2c1C[C@H]1CN(C(=O)c3ccccc3)[C@@](Cc3ccccc3)(C(=O)OC)[C@@H]21	166%
c1ccc2c(c1)-c1cccc3cccc-2c13	-16%
COc1ccc(C(=O)N2CCC3(CC2)CN(c2ncccn2)C3)cc1	22%

This part in full (from the top)
SMILES	AmpC nodet inh
O=C(Nc1cnn(Cc2ccc(Cl)cc2Cl)c1)c1noc2c1CCCC2	4µM*[single pt active]
COC(=O)Cn1c(C(=O)N2CCCC2)cc2c1C[C@H]1CN(C(=O)c3ccccc3)[C@@](Cc3ccccc3)(C(=O)OC)[C@@H]21	166%
c1ccc2c(c1)-c1cccc3cccc-2c13	-16%
COc1ccc(C(=O)N2CCC3(CC2)CN(c2ncccn2)C3)cc1	22%
N#CCSc1nc2c(sc(=S)n2Cc2ccco2)c(=O)n1-c1ccc(F)cc1	-10%
CCOC(=O)CCN=Cc1c(O)n(-c2ccc(Br)cc2)c(=O)[nH]c1=O	0%
OC1(c2cn(Cc3ccccc3)nn2)CCCCC1	-1%
CCN1CCn2c1nc(N1CCCCC1)nc2=O	2%
CC1(N)CCC(C(C)(C)N)CC1 (centres undefined)	-17%
CCOC(=O)c1nnn(CC(=O)Nc2cccc(F)c2)c1C(=O)OCC	2%
Cc1nc2nc(SCC(=O)C(C)(C)C)[nH]c2cc1Br	-8%
c1ccc(N2CCN(Cc3nnnn3C3CCCCC3)CC2)cc1	66%
COc1ccc(S(=O)(=O)Nc2cc(C(=O)NC3CCCCCC3)ccc2N2CCOCC2)cc1	119%
Cc1ccc(C)c(N2CCN(S(=O)(=O)c3ccc4c(c3)oc(=O)n4C)CC2)c1	51%
COc1nc(OC)nc(N(C)CCO)n1	-1%
COc1ccc(C(=O)Cn2c(=O)c(CCC(=O)O)nn3c4ccccc4nc23)cc1OC	4%
COc1ccc2c(c1OC)C(=O)OC2CC(=O)c1ccc(N(C)C)cc1 (centres undefined)	26%
Clc1ccc(-c2nn3c(C4COc5ccccc5O4)nnc3s2)cc1 (centres undefined)	30%
Cc1nnc(SCC(=O)Nc2ccc(Br)cn2)[nH]c1=O	-14%
N#Cc1ccc(CN2CCC3(CC2)CCN(C(=O)Oc2ccccc2)CC3)cc1	7%
CC(C)(C)n1nnnc1C(c1ccncc1)N1CCN(C2CCCCC2)CC1 (centres undefined)	-1%
COc1ccc(NC(=O)Nc2ccccc2C(=O)N2CCCC2)cc1	19%
COc1cc(C2/C(=C(\O)c3ccc4c(c3)CC(C)O4)C(=O)C(=O)N2CCCn2ccnc2)ccc1O (centres undefined)	-1%
COc1ccccc1Nc1cc(C(=O)NCCCN2CCOCC2)c2ccccc2n1	131%
CCOC(=O)c1c(C)oc2cc(Br)c(OC(=O)N3CCOCC3)cc12	151%
O=C(CSc1nnnn1C1CCCCC1)NCc1cccc(C(=O)O)c1	28%
CCC(C)NC(=O)C(Cc1ccccc1)NS(=O)(=O)c1cccc2nsnc12 (centres undefined)	0%
Cc1cc(N=Cc2c(O)ccc3ccccc23)no1	-1%
CCCOc1ccc(NC(=O)C2CC(=O)N(C(C)C)C2)cc1 (centres undefined)	21%
CCOc1ccc(N(CC(=O)NCc2ccccc2)S(C)(=O)=O)cc1	24%
O=C1NCCN1C(=O)N(c1ccccc1)c1ccccc1	-10%
COc1ccccc1NC(=O)CSc1nnc(-c2ccco2)o1	-4%
COC(=O)Nc1nc2ccc(C(=O)c3cccs3)cc2[nH]1	-1%
COc1ccccc1NC(=O)COc1ccc(/C=N/n2cnnc2)cc1OC	28%
CCN1CCN(CCNC(=O)c2cn(Cc3ccccc3F)nn2)CC1	-10%
O=S(=O)(Nc1ccc(O)c(CN2CCCCC2)c1)c1ccccc1	-6%
COc1cc2oc(-c3ccccc3)cc(=O)c2cc1OC	72%
NC[C@@H]1O[C@H](C23CC4CC(CC(C4)C2)C3)Cc2c1ccc(O)c2O	-17%&3%
COc1ccc2nc(N)sc2c1	-1%
Cc1cccc(-c2nc3ccccc3c(=O)n2-n2cccc2)c1	35%
COC1=C(C)C(=O)c2c(c(COC(N)=O)c3n2C[C@@H]2[C@@H]3N2C)C1=O (some centres undefined)	8%[5.75 µM]
Cc1ccccc1Nc1nc(N)nc(CSc2nnc3sc4ccccc4n23)n1	-13%
Cc1nnc(SCc2ccon2)n1-c1ccccc1	5%
CC(=O)OC(Cn1nc(C)cc1C)c1ccccc1 (centres undefined)	2%
CCOC(=O)c1c(-c2ccc(C)o2)csc1N	45%
COc1ccc(-c2cc(-c3cc(F)ccc3O)[nH]n2)cc1OC	78%
COc1ccccc1OCCCn1c(=O)oc2ccccc21	19%
COc1ccccc1N1CCN(C(=O)c2c(-c3c(Cl)cccc3Cl)noc2C)CC1	100%
Cn1c(=O)oc2cc(S(=O)(=O)Nc3ccc4c(c3)OCCO4)ccc21	-5%
CCC(C)[C@H](N)c1nnc(SCC(=O)Nc2cccc(Cl)c2)o1 (some centres undefined)	13%

Continued.
SMILES	AmpC nodet inh
COc1ccc2[nH]c3c(=O)n(CCCCC(=O)NCCN4CCCC4)c(=S)[nH]c3c2c1	23%
Nc1ncnc2c1cnn2-c1ccccc1	-8%
Cc1ccccc1CSc1nncn1N	61%
O=C(NCc1ccc2c(c1)OCO2)C1CCN(c2ccc(S(=O)(=O)N3CCCC3)cc2)CC1	3%
O=S1(=O)CC=C(CSc2nc3ccccc3[nH]2)C1	-16%
CN(C(=O)c1ccc(S(=O)(=O)NC2CCCC2)cc1)C1CCCCC1	25%
CC1=C(C(=O)N2CCOCC2)C(c2ccsc2)C2=C(CCCC2=O)N1 (centres undefined)	2%
CCCc1ccc(OCCNC(C)=O)cc1	11%
COc1ccc(CCCO[C@@H](Cn2ccnc2)c2ccc(OC)cc2)cc1	95%
CCOC(=O)N1CCN(C(c2ccc(F)cc2)c2sc3nc(C)nn3c2O)CC1 (centres undefined)	3%
CCCCCCn1c(CN2CCN(Cc3ccccc3)CC2)nc2c1c(=O)n(C)c(=O)n2C	133%
C=CCn1c2ccccc2c2nnc(SC(CC)C(=O)Nc3nc(C)c(C(=O)OCC)s3)nc21 (centres undefined)	51%
Clc1ccc(Sc2oc(/C=N/n3cnnc3)cc2Br)cc1	76%
Cc1cccc(NC(=O)c2cc(S(=O)(=O)NCc3ccco3)ccc2F)c1C	-5%
CC(=O)Nc1ccc(OC[C@@H](O)CNC(C)C)cc1	31%
CC(C)CC(=O)CN1C(=O)C2(OCCO2)c2ccccc21	14%
COc1ccc2[nH]cc(CCNc3cc(-c4ccccc4C)ncn3)c2c1	-9%
CC(Sc1nnc(-c2ccc(O)cc2)o1)C(=O)Nc1cccc2ccccc12 (centres undefined)	-12%
CC(C)COC[C@H](CN(Cc1ccccc1)c1ccccc1)N1CCCC1	40%[12.8 µM]
CCCC[C@@H]1C[C@H]1C(NC(=O)c1ccccc1)c1ccccc1 (some centres undefined)	-20%
COc1ccccc1NC(=O)N(CCN(C)C)Cc1cc2cc(C)ccc2[nH]c1=O	48%
CC1=C(n2nnc3ccccc32)C(c2ccccc2)C(C#N)=C(N)O1 (centres undefined)	-14%
C/C(NC1CCCC1)=C(/C#N)C(N)=O	-4%
COc1ccc(CC(=O)Nc2c3c(nn2-c2cccc(Cl)c2)CS(=O)(=O)C3)cc1	-4%
CC(=O)c1c(C)[nH]c(C(=O)N2CCC3(CC2)OCCO3)c1C	-2%
COC(=O)[C@H](C)NC(=O)NCc1ccc(F)cc1	9%
COCCn1c(NCc2ccc(C)cc2)nc2c1c(=O)[nH]c(=O)n2C	11%
Cc1c(C(=O)NCc2ccccn2)sc2nc(-c3ccc(F)cc3)cn12	84%
CNc1oc(-c2ccc(OCc3ccccc3)cc2)nc1C#N	23%
CC1(C)CN=C(N2CCN(C3=NCC(C)(C)S3)CC2)S1	-6%
COc1ccc(-n2nnnc2SC(C)C(N)=O)cc1 (centres undefined)	0%
COC(=O)[C@@H](NC(=O)Nc1ccc(OC)cc1)C(C)C	3%
Cc1ccc(S(=O)(=O)CCc2nnc(NC(=O)C3CCCO3)s2)cc1 (centres undefined)	0%
Cc1noc(C(=O)NCc2ccco2)c1Cl	-10%
COc1ccc(S(=O)(=O)N2CCCC(C(=O)NCc3ccco3)C2)cc1Cl (centres undefined)	25%
CCc1ccccc1NC(=O)CSc1nc2ccccc2n1CC(=O)N(C)C	36%
COc1ccc(CNc2ccnc(-c3cccc(C#N)c3)n2)c(OC)c1	50%
Cc1cc(C(=O)COC(=O)C2COc3ccccc3O2)c(C)n1CC1CCCO1 (centres undefined)	62%
O=C(O)C1CCC(=O)N1Cc1ccccc1Cl (centres undefined)	-7%
CC(C)CCNC(=O)NC(=O)COc1ccccc1C#N	13%

An excerpt of these results, as labelled records:
> COC(=O)[C@@H](NC(=O)Nc1ccc(OC)cc1)C(C)C
  AmpC nodet inh = 3%
> Cc1ccc(S(=O)(=O)CCc2nnc(NC(=O)C3CCCO3)s2)cc1 (centres undefined)
  AmpC nodet inh = 0%

Other compounds
SMILES	AmpC nodet inh
Cc1ccsc1C(=O)OCC(=O)Nc1sccc1C(N)=O	-13%
COc1cc(C(=O)N2CCN(Cc3ccccc3C(F)(F)F)CC2)cc(OC)c1OC	124%
CCOc1cc(CO)ccc1OCC(=O)N1CCCCC1	-4%
CC1CCCN(c2nc3c(c(=O)[nH]c(=O)n3C)n2Cc2ccccc2Cl)C1 (centres undefined)	7%
CN(C)CCCN1C(=O)C(=O)/C(=C(/O)c2ccncc2)C1c1ccccc1 (centres undefined)	-2%
COc1ccc(NCc2nnc(SCC(=O)N3CCCc4ccccc43)o2)cc1	40%
CC1(C)OC(=O)N(c2cccnc2)C1(C)O (centres undefined)	-6%
CN1CCN(c2ncc3ncc(=O)n(C[C@H]4CCCO4)c3n2)CC1	7%
CCC(=O)Nc1nc(C)c(C(=O)N2CCCCC2)s1	1%
Cc1cc(NC(=O)CC(C)(C)C)nc2c1c(=O)oc1ccccc12	-3%
Cc1ccc(NC(=O)CN2CCC3(O)CCCCC3C2c2ccc3c(c2)OCO3)c(C)c1 (centres undefined)	71%
CCSC(N)=Nc1ccc(C(F)(F)F)cc1	-1%
O=C(O)CNCCc1ccccc1	5%[5.75 µM]
COc1ccc(OC)c(C(C(=O)NCc2ccco2)N(C(=O)Cn2nnc3ccccc32)C2CC2)c1 (centres undefined)	30%
S=c1nc(C2CCCCC2)[nH][nH]1	-16%
CCCCOC(=O)Sc1nc2ccccc2o1	-1%
Cc1cc(S(=O)(=O)Nc2ccccc2C)ccc1F	-1%
COC(=O)c1cc2c(=O)n3ccccc3nc2n(Cc2cccnc2)c1=N	-5%
Cc1nn(-c2ccccc2)c2c1C1(C(=O)Nc3ccccc31)N1C(=N2)Sc2ccccc21 (centres undefined)	10%
Cc1onc(-c2c(F)cccc2Cl)c1C(=O)NCc1ccco1	10%
COc1ccc(S(=O)(=O)Nc2ccc(S(=O)(=O)N3CCCCC3)cc2)cc1	-11%
C=C1C(=O)C=C2CN(C(=O)c3ccccc3)[C@@](Cc3ccc(OC)cc3)(C(=O)OC)[C@@H]12	95%
CC(C)(O)[C@H]1O[C@@H]2CC[C@]3(C)[C@@]4(C)c5[nH]c6ccccc6c5C[C@@H]4CC[C@]3(O)C2=CC1=O	140%
COc1ccc(Br)cc1CNC(=O)CCN1C(=O)COc2ccccc21	19%
CS(=O)(=O)N1CCCC(C(=O)N2CCc3ccccc3C2)C1 (centres undefined)	13%
CSc1cccc(-n2c(C)cc(C(N)=O)c2C)c1	24%
O=C(Nc1ccccn1)C1(c2ccccc2)CCCC1	3%
CCOC12NC(=O)CC(=O)N1C(c1ccccc1)=CS2 (centres undefined)	-8%
Cc1ccccc1CN1C(=O)C2(OCCCO2)c2ccccc21	37%
N#Cc1c(N)sc2c1CCCCCC2	-4%
C=C(C)COc1ccc(-c2nc(N)ncc2Oc2ccccc2OC)c(O)c1	15%
O=C(NCCCc1ccccc1)C1CC(=O)N(c2ccc3c(c2)OCCO3)C1 (centres undefined)	38%
CCC(C)NC(=O)CS(=O)Cc1nc(-c2cccc(C)c2)oc1C (centres undefined)	4µM*[single pt active]
CCN(c1ccccc1)c1cc(C)nc2nc(C)nn12	16%
CC1CCN(C(=O)c2ccc(N(C)S(C)(=O)=O)cc2)CC1	28%
COc1ccc(S(=O)(=O)n2nc(OC(=O)c3ccco3)cc2N)cc1	-13%
CCOC(=O)CSc1nnc(-c2ccoc2C)n1-c1ccc(OCC)cc1	82%
CCOC(=O)c1c(C)n(C)c2ccc(O)c(CN(C)C)c12	-3%
CN1C=CC2=C(C#N)C(N)C(C#N)(C#N)C(c3ccccc3)C2C1 (centres undefined)	-7%

Copied from the list.
In AmpC nodet inh, CC1CCN(C(=O)c2ccc(N(C)S(C)(=O)=O)cc2)CC1 has the entry 28%
In AmpC nodet inh, COc1ccc(S(=O)(=O)n2nc(OC(=O)c3ccco3)cc2N)cc1 has the entry -13%
In AmpC nodet inh, CCN(c1ccccc1)c1cc(C)nc2nc(C)nn12 has the entry 16%
In AmpC nodet inh, CCC(C)NC(=O)CS(=O)Cc1nc(-c2cccc(C)c2)oc1C (centres undefined) has the entry 4µM*[single pt active]

Not all compounds are listed (hit frequency here may not be typical).
